High-throughput results deposited in PubChem by several laboratories.
Mtb H37Rv: M. tuberculosis H37Rv growth inhibitors, H37Rv strain (AID 1626) | M. tuberculosis H37Rv growth inhibition; higher % means a stronger effect | inhibition, % at 10 µM, or IC50 in µM where a hit was titrated | 0.95% of 220,000 active;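 active means confirmed in a dose series; inconclusive means inhibition above 80% but not taken into the dose series; inactive means below 80% or under 30% at every dose of the series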;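 further: bacteria incubated seven days before Alamar blue readout; 0% = bacteria only wells and 100% = bacteria with antibiotic wells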
Mtb betalactam: beta-lactam sensitization of Mtb H37Rv | 0.27% of 330,000 active | AID 434955 | M. tuberculosis H37Rv growth with meropenem, percent inhibition; hits of this screen are not shown here | inhibition, % at 25 µM;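 active means about 74% or more and at least 40 points above the plate without the antibiotic, then above 30% in a dose series; inconclusive means first-round hits that could not be retested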;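 further: growth measured after seven days incubation then overnight dye step; 0% = bacteria only wells and 100% = bacteria with antibiotic; twin plates without the antibiotic show which effects depend on it; some results filed as inactive read as strong as hits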
RecA intein inh: blocks M. tuberculosis RecA intein splicing | 0.75% of 290,000 active | cell-free RecA intein splicing, fluorescence | inhibition, %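 (about 9 µM by stock and volumes)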; in the data active means inhibition above about 30%; inconclusive means no clear call, values can overlap the other calls;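 further: 0% = vehicle wells and 100% = reference inhibitor control wells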
Target sequence (P9WHJ3 whole entry, looked up): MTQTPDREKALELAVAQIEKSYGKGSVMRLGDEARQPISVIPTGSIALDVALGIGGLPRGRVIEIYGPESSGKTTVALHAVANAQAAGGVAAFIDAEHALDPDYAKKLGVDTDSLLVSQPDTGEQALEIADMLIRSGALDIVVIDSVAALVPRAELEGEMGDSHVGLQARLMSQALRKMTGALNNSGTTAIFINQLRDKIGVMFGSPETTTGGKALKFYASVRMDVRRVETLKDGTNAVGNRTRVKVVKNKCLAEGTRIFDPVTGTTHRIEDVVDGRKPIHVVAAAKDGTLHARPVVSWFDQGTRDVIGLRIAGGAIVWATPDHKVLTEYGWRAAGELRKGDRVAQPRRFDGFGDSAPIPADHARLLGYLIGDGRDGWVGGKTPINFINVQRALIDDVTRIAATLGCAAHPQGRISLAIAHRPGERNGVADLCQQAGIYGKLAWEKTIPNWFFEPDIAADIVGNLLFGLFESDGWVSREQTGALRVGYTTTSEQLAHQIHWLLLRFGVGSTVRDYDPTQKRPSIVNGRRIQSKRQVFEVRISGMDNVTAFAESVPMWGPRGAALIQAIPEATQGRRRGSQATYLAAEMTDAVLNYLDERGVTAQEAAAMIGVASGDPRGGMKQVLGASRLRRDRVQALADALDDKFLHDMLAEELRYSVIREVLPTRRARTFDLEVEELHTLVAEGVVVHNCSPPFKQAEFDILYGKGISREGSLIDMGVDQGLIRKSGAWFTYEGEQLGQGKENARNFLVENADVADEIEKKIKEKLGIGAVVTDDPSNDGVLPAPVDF
YopH inh: YopH (Yersinia) phosphatase inhibition. fluorescence Ex485/Em525. inhibition, %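 (about 10 µM by stock and volumes)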. 0.16% of 140,000 active;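 active means inhibition of 50% or more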;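 further: controls were vehicle for no effect and minimum signal wells for full effect; inactives centre near -20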
Arbovirus anti: arbovirus infection inhibition; inhibition, % at 10 µM; 0.37% of 200,000 active; AID 1251; arbovirus infection cell-based antiviral screen;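 active means inhibition from about 30%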;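 further: bluetongue infection of BSR cells; cell survival read as ATP light after 72 h; 0% = infected wells without compound and 100% = uninfected wells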
Arbovirus anti repeat: also measured in Arbovirus anti; calls as there; inhibition, %; measured here: 10K subset replicate screen; many hits read low in the repeat;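 first of two repeat runs on a subset; 0% = infected and 100% = uninfected wells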
An asterisk follows results filed as active; ? = inconclusive; / = not tested or not shown. This is a subset (hit frequency here may not be typical).

SMILES	Mtb H37Rv	Mtb betalactam	RecA intein inh	YopH inh	Arbovirus anti	others
CCC(C)C(NC(C)=O)C(=O)NC(=O)NC(c1ccccc1)c1ccccc1 (stereo not drawn)	-2%	8	0.8	-14	1
O=C(NCCCCNC(=O)C(F)(F)F)C(F)(F)F	2%	1	2.1	/	6
COc1ccc(Nc2nc(NCC3CCCO3)nc(N)c2[N+](=O)[O-])cc1 (stereo not drawn)	3%	3	-0.3	/	/
Cc1ccc(S(=O)(=O)NC2CC2)cc1	/	-2	-2.3	/	/
O=C(Nc1ccc2c(c1)CN(Cc1ccccc1O)CC2)C1CCCO1 (stereo not drawn)	/	3	0.0	/	/
CN(C1CCCCC1)S(=O)(=O)c1ccc(NC(=O)c2ccco2)cc1	0%	1	-4.9	-47	-2
CCCc1nnc(NC(=O)CN2C(=O)c3ccccc3C2=O)s1	-4%	-5	-1.1	-15	-3
Cc1c(C(=O)Nc2ccccc2)cc(-c2ccccc2)n1CCCN1CCOCC1	4%	1	/	/	/
COc1ccc2[nH]c(O)c(N=NC(=O)Cc3cccs3)c2c1	0%	-8	6.6	/	/
CCN1CCN(C(c2nnnn2Cc2ccc3c(c2)OCO3)C(C)C)CC1 (stereo not drawn)	3%	6	4.1	-10	4
O=C(COC(=O)Cc1c[nH]c2ccccc12)NCCc1ccccc1	/	3	-1.2	/	/
Cc1ccc2nc(NC(=O)C3CCCN(S(=O)(=O)c4cccc5nsnc45)C3)sc2c1 (stereo not drawn)	47%	83	4.9	-20	-13
O=c1cc(Cn2nnc(-c3ccc(Cl)cc3)n2)nc2sccn12	-5%	-1	-1.4	-9	6
CCn1c(COc2ccc(OC)cc2)nnc1SCC(=O)Nc1cc(OC)ccc1OC	-10%	4	1.4	-23	2
CCNC(=S)Nc1cc(Cl)ccc1Oc1ccccc1	4%	5	4.7	-16	-2
Cc1c(/C=N/NC(=O)c2cccs2)c2ccccc2n1Cc1ccccc1Cl	5%	-1	-0.7	/	/
CC(C)CNc1nc(N)c([N+](=O)[O-])c(NC2CCCCC2)n1	/	6	-0.2	/	/
O=C(NCCCN1CCOCC1)c1sc2cc([N+](=O)[O-])ccc2c1Cl	0%	-2	0.2	/	-1
CC1CC(=O)Nc2ccccc2N1S(=O)(=O)c1ccc(Br)cc1 (stereo not drawn)	-4%	-7	0.1	-5	0
O=P(O)(CCc1ccccn1)CN1CCOCC1	-11%	-5	0.5	-5	6	Arbovirus anti repeat=3
CCOC(=O)CSc1nc2ccccc2c(=O)n1CC(C)C	7%	5	5.0	/	-5
CCN(Cc1ccccc1)C(=O)CCS(=O)(=O)c1ccc2c(c1)NC(=O)CO2	/	-2	0.0	/	/
COc1cc2c(C(=O)O)c(C)n(C)c2cc1Br	0%	-1	-0.1	/	5
CC1Cc2cc(/C(O)=C3/C(=O)C(=O)N(Cc4ccco4)C3c3cccs3)ccc2O1 (stereo not drawn)	-21%	1	2.7	-13	4
CCOc1cc(/C=N/N=C(N)N)ccc1OCc1ccc(Cl)cc1	?	35	9.1	-11	-39
O=[N+]([O-])c1ccccc1CNC1CCCCCC1	3%	-2	-3.1	/	-4
CCN(c1ccccc1)c1nc(C#N)nc(N(CC)c2ccccc2)n1	-4%	-3	27	/	/
CN=c1scc(C)n1/N=C/c1ccc2c(c1)OCO2	6%	4	-7.4	6	-10
CC1(c2nnc(-c3ccccc3)o2)CC(c2cccc(Cl)c2)=NO1 (stereo not drawn)	-5%	-12	6.4	/	/
CCN(CC)CC(=O)N1CCCC(C(=O)c2ccccc2OC)C1 (stereo not drawn)	-6%	6	-7.6	/	3
O=C1NC(=Nc2ccc(F)cc2)SC1Cc1ccc(F)cc1 (stereo not drawn)	4%	19	-0.4	/	/
COc1ccc(OC)c(Cc2nnc(CCC(=O)N3CCCCC3)o2)c1	6%	18	-0.2	/	6
Cc1nc(-c2ccccn2)sc1C(=O)Nc1ccc(Cl)c(Cl)c1	-2%	-14	1.5	-36	-1
CCCCS(=O)(=O)c1sc2nc(C)cc(C)c2c1N	-4%	-4	0.0	1	3
COC(=O)c1c(F)c(F)c(NCCO)c(F)c1F	-7%	4	-4.1	-51	4
O=C(NCC(c1ccco1)N1CCN(c2ccccc2F)CC1)C1CCCCC1 (stereo not drawn)	/	4	2.3	/	/
O=c1[nH]c(/C=C/c2ccccc2[N+](=O)[O-])nc2ccccc12	-5%	-1	2.5	-26	-13
O=C(Cn1cc(C(=O)c2ccco2)c2ccccc21)NC1CCCC1	-4%	3	-2.4	-46	4
CCOc1ccc(N2C(=O)CS/C2=N/NC(=O)COc2ccc3ccccc3c2)cc1	-1%	14	0.7	-15	6
COC(=O)C1=C(C)NC(=O)C1(NS(=O)(=O)c1ccc(C)cc1)C(F)(F)F (stereo not drawn)	0%	-16	0.1	-9	2
O=C(/C=C/c1ccccc1)NC(NC(=S)Nc1cccc(O)c1)C(Cl)(Cl)Cl (stereo not drawn)	7%	45	16	-23	-8
CNC(=O)c1cc(C)c(-c2ccccc2)s1	10%	-1	-0.3	-90	-12
Cc1ccc(S(=O)(=O)N(C)/N=C2/C(=O)N(CC(=O)O)c3ccccc32)cc1	/	-3	-5.8	/	/
COc1ccc(CNC(=O)CN2C(=O)c3ccccc3C2=O)cc1	/	-8	1.4	/	/
CC1=C(C(=O)Nc2ccccc2)C2(CCCCC2)C(C#N)=C(SCC(N)=O)N1	-4%	32	1.9	-18	1
CCN(CC)CC(=O)Nc1ccc(Oc2ccc(NC(=O)CN(CC)CC)cc2)cc1	7%	-7	-0.6	/	-16
CCN1C(=O)N(c2ccc(Cl)cc2)C(C)=CC1(C)C	5%	0	2.5	21	1
Cc1ccccc1NC1=C/C(=N\S(=O)(=O)c2ccc(C(=O)O)cc2)c2ccccc2C1=O	/	75	96*	/	/
CN(Cc1ccccc1)Cc1nc2c(c(=O)n(C)c(=O)n2C)n1Cc1ccccc1Cl	-2%	2	3.8	-14	-1
O=C(CCN=C1NS(=O)(=O)c2ccccc21)OCC(=O)c1ccccc1	/	-6	0.0	/	/
Cc1cc2nc(C)c(Cl)c(=O)n2[nH]1	13%	3	-11	/	7
[O-]/C(=C(\C(=S)NCc1ccccc1)[n+]1ccccc1)c1ccc(Cl)s1	3%	10	3.4	/	2
CC1CCCCN1Cc1cnc(Cl)s1 (stereo not drawn)	-3%	-8	7.4	-48	9
O=C(COC(=O)c1ccc2c(c1)S(=O)(=O)N=C1CCCCCN12)NCCc1ccc(F)cc1	-2%	7	5.7	/	-2
Cc1ccc2cc(CN(Cc3nnnn3C3CCCCC3)CC3CCCO3)c(=O)[nH]c2c1 (stereo not drawn)	12%	0	4.5	-31	-4
O=C(Cc1n[nH]c(=O)[nH]c1=O)N/N=C/CCc1ccccc1	-4%	-3	2.7	/	/
CCc1ccc(CN(C)C(C)C(=O)NCc2ccccc2)cc1 (stereo not drawn)	/	0	-1.2	/	/
CCCn1c2c(c(O)c(C(=O)Nc3ncccc3O)c1=O)CCCC2	2%	22	-2.2	-5	-34
CC(NC(N)=O)C(=O)Nc1ccc(Cl)c(S(=O)(=O)Nc2ccc(Cl)cc2)c1 (stereo not drawn)	0%	4	4.3	/	-4
CC1CN(C(=O)c2ccc(OC3CCN(Cc4ccccn4)CC3)cc2)CCN1C (stereo not drawn)	/	0	-1.4	/	/

Fetched by compound from the entries so far:
SMILES	Mtb H37Rv	Mtb betalactam	RecA intein inh	YopH inh	Arbovirus anti	others
O=C(COC(=O)c1ccc2c(c1)S(=O)(=O)N=C1CCCCCN12)NCCc1ccc(F)cc1	-2%	7	5.7	/	-2
O=C(COC(=O)Cc1c[nH]c2ccccc12)NCCc1ccccc1	/	3	-1.2	/	/

(continued)
SMILES	Mtb H37Rv	Mtb betalactam	RecA intein inh	YopH inh	Arbovirus anti	others
Cc1ccc(S(=O)(=O)N2CCC(C(=O)OCC(=O)N(CCC#N)c3ccc(F)cc3)CC2)cc1C	/	-6	2.2	/	/
CCN(CC)CCNc1c2c(c(C#N)c3nc4ccccc4n13)CCCC2	-13%	-4	-81	-8	-6
COc1ccc2[nH]c(=O)c(CN(CCc3ccccc3)C(C)=O)cc2c1	-7%	-4	0.4	-13	9
Cc1cccc(OCCC(=O)Nc2cc(S(=O)(=O)N3CCCCC3)ccc2N2CCOCC2)c1	-1%	-4	-1.3	/	4
Cc1cc(NC(=O)CSc2nc3ccccc3c(=O)n2-c2ccccc2)no1	0%	6	-0.7	-15	7
Cc1ccccc1Nc1c(-c2ccncc2)nc2ccc(Br)cn12	11%	1	4.7	-40	-22
CCOC(=O)c1cc(S(=O)(=O)N2CCCC2)cn1C	/	1	-5.5	/	/
COC(=O)c1ccc(Oc2coc3cc(OCc4cnn(-c5ccccc5)c4)ccc3c2=O)cc1	5%	4	-3.4	-24	0
Cc1ccnc2c(N3C(=O)C4C5C=CC(C5)C4C3=O)cccc12 (stereo not drawn)	-8%	-1	0.4	-45	11
CCOc1ccc(-c2c(C)sc3nc[nH]c(=O)c23)cc1	/	6	0.3	/	/
CCOC(=O)C1=C(N)OC2=C(C(=O)CC(C)(C)C2)C1c1ccoc1 (stereo not drawn)	-9%	-6	0.3	-10	3
Cc1ccc(C(=O)Nc2cccc(C(=O)N3CCOCC3)c2)cc1Cl	/	-12	-4.0	/	/
O=C(CSc1cccc[n+]1[O-])CSc1cccc[n+]1[O-]	?	100	1.4	/	4
CCC(=O)N1CCN(c2ccc(Cl)cc2NC(=O)Cc2ccccc2)CC1	5%	0	/	-26	4
C/C(CC(=O)Nc1cc(Cl)ccc1C)=N\NC(N)=O	-5%	-2	-1.5	/	/
CCCCN(C(=O)c1ccc(N(C)S(=O)(=O)c2ccc(C)cc2)cc1)c1c(N)n(CCC)c(=O)[nH]c1=O	/	-9	-0.8	/	/
Cc1ccc2c(c1)N(CC(=O)NCCCN1CC(C)CC(C)C1)C(=O)c1cccnc1O2 (stereo not drawn)	/	?	0.3	/	/
CCn1c(C)cc(/C=C2\C(=O)NC(=O)N(c3ccccc3C)C2=O)c1C	-5%	-1	-0.3	/	-4
Cc1ccc(C(=O)NCC(=O)N2CCCCCC2)cc1	/	-6	-1.1	/	/
O=S(=O)(c1cc(Cl)ccc1Br)N1CCCCC1	4%	25	2.1	-14	7
COCCCN(Cc1ccco1)C(=O)Cn1ncc2c([nH]c3ccccc32)c1=O	/	5	-0.3	/	/
COCc1nnc(NC(=O)C2CC(=O)N(c3ccc(C)c(Cl)c3)C2)s1 (stereo not drawn)	/	58	-0.1	/	/
O=C(c1cc2cc([N+](=O)[O-])ccc2s1)N1CCOCC1	-4%	0	0.5	/	1
O=C(COc1cccnc1[N+](=O)[O-])NCc1ccco1	-7%	3	-2.2	/	4
COc1ccc(-c2nc3ccccc3s2)cc1	10%	/	/	/	-3
COc1c(C)cc(C(=O)C2CCCN(Cc3cccc4nccnc34)C2)cc1C (stereo not drawn)	-2%	-2	-1.4	/	18

In the list so far, these have an NH in an aromatic ring:
SMILES	Mtb H37Rv	Mtb betalactam	RecA intein inh	YopH inh	Arbovirus anti	others
COc1ccc2[nH]c(O)c(N=NC(=O)Cc3cccs3)c2c1	0%	-8	6.6	/	/
O=C(COC(=O)Cc1c[nH]c2ccccc12)NCCc1ccccc1	/	3	-1.2	/	/
O=c1[nH]c(/C=C/c2ccccc2[N+](=O)[O-])nc2ccccc12	-5%	-1	2.5	-26	-13
Cc1cc2nc(C)c(Cl)c(=O)n2[nH]1	13%	3	-11	/	7
Cc1ccc2cc(CN(Cc3nnnn3C3CCCCC3)CC3CCCO3)c(=O)[nH]c2c1 (stereo not drawn)	12%	0	4.5	-31	-4
O=C(Cc1n[nH]c(=O)[nH]c1=O)N/N=C/CCc1ccccc1	-4%	-3	2.7	/	/
COc1ccc2[nH]c(=O)c(CN(CCc3ccccc3)C(C)=O)cc2c1	-7%	-4	0.4	-13	9
CCOc1ccc(-c2c(C)sc3nc[nH]c(=O)c23)cc1	/	6	0.3	/	/
CCCCN(C(=O)c1ccc(N(C)S(=O)(=O)c2ccc(C)cc2)cc1)c1c(N)n(CCC)c(=O)[nH]c1=O	/	-9	-0.8	/	/
COCCCN(Cc1ccco1)C(=O)Cn1ncc2c([nH]c3ccccc32)c1=O	/	5	-0.3	/	/
